Screening data (PubChem)
RanGTP-Impb inh: inhibitors of RanGTP-importin-beta interaction, primary screen, biochemical, FRET, CFP-Ran, YFP-importin-beta, homogeneous; inhibition, % (no concentration beside the values); 300,000 tested, 1.1% active; cell-free CFP-Ran/YFP-importin-beta FRET ratio;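 active = most replicates above 15%; inconclusive = exactly half above 15%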;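 note: 0% = DMSO wells and 100% = Ran loaded with GDP instead of GTP; wells of about 40 µL received 100 nL stock; the first replicate is given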
T cruzi repl: blocks replication of Trypanosoma cruzi | T. cruzi beta-gal in NIH3T3, luminescence, 90 h | AID 1885 | 300,000 tested, 1.4% active | inhibition, % (no concentration beside the values);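 active = mean inhibition across valid replicates above about 55%, limit read from the data; inconclusive = mean below that limit but half or more replicates reach it; inactive = mean below it, under half of replicates reach it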;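 note: signal also drops with host cell toxicity which is not excluded here; 0% = plate median of DMSO wells and 100% = zero luminescence signal; higher percent means less beta-gal luminescence so fewer parasites; stock transfer was 50 nL into about 50 µL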
Beta cell apopt: beta cell apoptosis inhibition | protection from apoptosis, % (concentration not given with the values) | 300,000 tested, 0.8% active | INS-1E cytokine-induced death, ATP luminescence, 48 h; percent of positive-control rescue, neutral wells zero;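 active = all replicates at 75% or more, or half of them and the mean; inconclusive = half reach 75% but not the mean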;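 note: 0% = cytokine-treated negative control wells and 100% = positive control rescue; higher means more ATP so stronger rescue from cytokine killing; wells of about 40 µL received 100 nL stock; the first replicate is given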
B2AR ag: activates human beta-2 adrenergic receptor causing internalization | AID 504454 | response, % (no concentration beside the values) | Am2.2-beta2AR cells, FAP receptor internalization, flow cytometry; reference of the scale not given here | 340,000 tested, 0.43% active | P07550;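 active = response above a set limit, near 3 SD of response in nonfluorescent compounds, cut at about 42% in these data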;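 note: stock transfer was 100 nL into about 11 µL; a reference agonist was the positive control; negative values mostly stem from fluorescent compounds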
Target sequence (P07550 whole entry, looked up): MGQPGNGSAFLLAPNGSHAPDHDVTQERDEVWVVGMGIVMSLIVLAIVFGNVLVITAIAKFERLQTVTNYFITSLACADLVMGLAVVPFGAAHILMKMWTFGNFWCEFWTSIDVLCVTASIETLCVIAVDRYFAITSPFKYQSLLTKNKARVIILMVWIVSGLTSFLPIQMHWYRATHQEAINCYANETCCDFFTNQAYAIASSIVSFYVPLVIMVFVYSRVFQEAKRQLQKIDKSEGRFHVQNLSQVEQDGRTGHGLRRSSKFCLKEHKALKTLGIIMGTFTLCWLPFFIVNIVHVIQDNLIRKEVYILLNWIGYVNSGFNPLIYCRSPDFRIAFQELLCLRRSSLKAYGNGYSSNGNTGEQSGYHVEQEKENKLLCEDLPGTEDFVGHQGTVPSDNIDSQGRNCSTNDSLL
UCH37 DUB inh: blocks the human deubiquitinase UCH37; Q9Y5K5; purified proteasome/UCH37, Ub-AMC cleavage fluorescence; inhibition, % (no concentration beside the values); 330,000 tested, 0.33% active;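 active = mean of two replicates above 20%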;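 note: 0% = compound-free wells with enzyme and 100% = wells lacking proteasome; stock transfer was 100 nL into about 20 µL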
Target sequence (Q9Y5K5 whole entry, looked up): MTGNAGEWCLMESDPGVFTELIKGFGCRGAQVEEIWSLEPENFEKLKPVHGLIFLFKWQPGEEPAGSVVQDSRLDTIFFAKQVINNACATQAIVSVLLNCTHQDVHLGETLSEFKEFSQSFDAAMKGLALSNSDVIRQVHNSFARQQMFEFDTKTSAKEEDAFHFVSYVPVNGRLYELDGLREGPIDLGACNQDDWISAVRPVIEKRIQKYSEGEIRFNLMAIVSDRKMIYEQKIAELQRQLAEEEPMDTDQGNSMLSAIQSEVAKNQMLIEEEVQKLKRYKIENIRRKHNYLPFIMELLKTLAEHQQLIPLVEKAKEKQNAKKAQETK
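Material: Human UCH37 enzyme supplied as purified proteasome complex | Schedule: 30 min preincubation with enzyme, 25 min cleavage at room temperature | Detection: AMC fluorescence 355/460 nm | Measure: % inhibition of Ub-AMC cleavage fluorescence | Controls: Wells without proteasome as full block, compound-free enzyme plus substrate as uninhibited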
LANA-H2A inh: blocks KSHV LANA binding to histone H2A/H2B | Q9QR71 | cell-free LANA-H2A/H2B peptide, fluorescence polarization | inhibition, % (concentration not given with the values) | 320,000 tested, 0.6% active; in the data active = inhibition mostly above about 10%, no sharp cut-off; inactive = mostly below about 6.7%;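 note: stock transfer was 7.5 nL into about 10 µL; 0% = median of vehicle wells and 100% = median of positive control wells; one replicate is shown; the record names a cut of 25% in any replicate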
Calb FLC: C. albicans growth modulation with fluconazole; C. albicans CaCi-2 (fluconazole-resistant clinical isolate) + fluconazole, Alamar Blue growth, 48 h; growth inhibition, % (concentration not given with the values); 300,000 tested, 0.57% active; AID 1979;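 active = most replicates above 75%; inconclusive = exactly half above 75%; inactive = most below 75%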;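 note: all wells also contain fluconazole at 8 µg/ml as a sub-toxic cotreatment; 0% = median of DMSO wells and 100% = median of geldanamycin control wells; wells of about 8 µL received 7.5 nL stock; the first replicate is given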
Bfl-1 A1 inh: inhibitors of the anti-apoptotic protein A1, read as caspase activation | 330,000 tested, 0.066% active | MEF A1-2A-BIM cells, Caspase-Glo 3/7 luminescence, 3 h; percent of clofoctol response, vehicle zero | AID 2462 | caspase activation, % (test concentration not listed);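 active = over half of replicate activation scores above 10%, or exactly half above 10 with the replicate mean above 10; inconclusive = replicate mean below 10 yet half the replicates above 10; inactive = over half of replicates below 10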;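 note: wells of about 30 µL received 50 nL stock; many hits fall short of the cut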
An asterisk follows results filed as active; u = inconclusive; x = not tested or not shown; + = active, no number.

Fields – RanGTP-Impb inh, T cruzi repl, Beta cell apopt, B2AR ag, UCH37 DUB inh, LANA-H2A inh, Calb FLC, Bfl-1 A1 inh
> CCN(CC(=O)Nc1c(F)cccc1F)C(=O)C1CC(=O)N(CCc2ccccc2)C1 (configuration not stated)
→ 0.1, -17, -9, 1, 2.0, 2.3, -7, 0.0
> Cc1nc(C(C)N(C)Cc2nc(Cc3ccccc3F)no2)c(C)s1 (configuration not stated)
→ 0.2, -3, 1, 2, 5.1, 3.2, 1, 0.1
> Cc1ccnc(-n2c(C)cc(C=O)c2C)c1
→ 2.9, 11, -3, -5, -3.0, 2.3, 7, 0.3
> CC1CCN(C(=O)CN(C2CCCCC2)S(C)(=O)=O)CC1
→ -5.4, -10, -5, 12, 4.8, -3.9, 2, 1.1
> C=CCc1c(O)nc(SCC(=O)c2ccccc2)[nH]c1=O
→ 2.3, 0, -11, 3, -0.5, 2.4, 21, 1.4
> CC(C)=CC(=O)Nc1ccccc1C(N)=O
→ 5.1, -7, -10, -1, 2.4, 1.9, -7, 0.2
> CC(=O)Nc1ccc(/C=N/N2C(C)CCCC2C)cc1 (configuration not stated)
→ -1.0, -6, 3, -2, x, 1.7, 6, 1.2
> CCOC(=O)c1c(C)n(C)c2ccc(OCC(N)=O)cc12
→ 0.8, 10, -3, -2, 10, 0.8, 0, 0.9
> c1c(CC2CCCC2)nnn1C[C@H]1CC[C@@H]([C@@H]2CC[C@H](Cn3cc(CC4CCCC4)nn3)O2)O1
→ -2.9, -19, 13, -12, -0.2, 6.8, 4, 0.1
> CCOc1cc(N2CCOCC2)c(OCC)cc1NS(=O)(=O)c1ccc(Cl)s1
→ u, 7, 2, 15, 1.9, -5.4, 14, -0.4
> Cc1c(C(=O)NCCN2CCOCC2)oc2ccc(Br)cc12
→ 2.0, -11, -3, -4, 6.3, -1.3, -1, -0.5
> N/C(COc1ccccc1)=N\NS(=O)(=O)c1ccccc1
→ 5.9, -4, x, -2, 2.5, 4.5, 10, -0.2
> CN(c1ccc(OCC(=O)N2CCC(C(N)=O)CC2)cc1)S(=O)(=O)c1cccs1
→ u, -25, -3, -3, 3.7, 0.8, 8, -0.3
> COc1ccc(C(=O)N2CCCC(Nc3ccc(F)cc3)C2)c(OC)c1 (configuration not stated)
→ 2.4, -13, x, 4, 2.8, 7.7, 12, 0.6
> Cc1ccccc1-n1c(=S)[nH]c2nc3c(cc2c1=O)COC(C)(C)C3
→ 1.2, 8, 2, 4, 3.2, 0.7, -4, -0.5
> Cc1ccccc1NNC(N)=S
→ 6.2, -17, -2, -9, 4.0, x, -26, 0.3
> N#CCN(C(=O)COC(=O)C1CC2CCCC(C1)C2=O)c1ccccc1 (configuration not stated)
→ -5.1, -11, 1, -3, 3.3, -1.3, -5, 0.6
> CCCCC(CC)Cn1c(O)c(/C=C2\C=NN=C2c2ccccc2)sc1=S (configuration not stated)
→ 2.0, 53, -3, 6, 4.9, -1.9, -10, -0.5
> O=C(COc1ccc(Br)cc1CO)Nc1ccc(S(=O)(=O)N2CCCCC2)cc1
→ x, x, 4, -7, 1.6, +, x, -1.1
> CCOc1ccc(CCNC(=O)COC(=O)c2cc(S(=O)(=O)N3CCOCC3)ccc2F)cc1OCC
→ 1.4, -18, -5, 10, x, 4.2, 10, 0.6
> Cc1ccc(S(=O)(=O)c2nc(S(C)(=O)=O)sc2NCc2ccc3c(c2)OCO3)cc1
→ 1.5, 11, -1, -2, 3.4, -1.9, 15, 0.4
> CC1CCCN(S(=O)(=O)c2ccc(NC(=O)CN3CCCCC3)cc2)C1 (configuration not stated)
→ u, 6, 1, 5, 2.0, -2.0, 1, 0.6
> CCOc1cc(C2C(C#N)=C(N)Oc3n[nH]c(CC)c32)ccc1OCCN1CCOCC1 (configuration not stated)
→ 0.9, -14, -5, 14, 0.4, -41, 0, 1.8
> Cc1nn(-c2ccccc2)c2c1C(c1ccc(F)cc1F)C(C#N)=C(N)O2 (configuration not stated)
→ -3.1, 12, 5, -3, 5.7, 1.4, -26, 0.5
> C=CCNC(=S)NNC(=O)c1ccco1
→ 6.0, -23, -2, -11, 0.8, 1.3, 19, 1.0
> FC(F)(F)c1cccc(N2CCN(C3CC4CCC3C4)CC2)c1 (configuration not stated)
→ u, -2, -11, -2, 5.7, 1.0, -13, -1.1
> Cc1c(/C(O)=C2\C(=O)C(=O)N(CCN(C)C)C2c2ccccc2)cnn1-c1ccccc1 (configuration not stated)
→ 1.6, 3, 6, 0, 9.8, 5.0, -2, 0.6
> CC1(C)OC(=O)C=C[C@]2(C)[C@H]3CC[C@@]4(C)[C@H](c5ccoc5)OC(=O)[C@H]5O[C@]54[C@]3(C)C(=O)C[C@@H]12
→ x, x, -1, -8, 2.2, 6.3, x, -0.4
> CCOC(=O)C1CCCN(c2c(N3CCN(c4cccc(Cl)c4)CC3)c(=O)c2=O)C1 (configuration not stated)
→ -2.7, 8, 0, 8, 7.6, -4.0, 0, 0.1
> CCc1ccc(CNc2ccc3c(c2)ncn3C)cc1
→ u, 10, x, 10, -8.6, x, -10, x
> O=C(O)c1cc(N/N=C/c2ccc(-c3ccccc3)cc2)ccc1Cl
→ 0.1, -2, -2, 4, x, 1.7, 15, -8.4
> CCn1c(SCC(=O)Nc2nccs2)nnc1-c1ccccc1
→ 1.8, 1, 7, -1, -0.8, 4.1, 3, -0.6
> CC(C)OC(=O)c1ccc(NC(=O)C2C3CC4OC(=O)C2C4C3)cc1 (configuration not stated)
→ x, x, x, -4, 5.5, 0.0, -1, -0.7
> CCOC(=O)CC(=O)CSc1nc2ccc(OC)cc2cc1C
→ -17, 20, -12, 2, 3.3, -1.6, 21, -0.3
> Cc1ccc(-c2cc(O)cc3sc(=O)oc23)cc1C
→ 3.4, 8, -11, 5, 5.4, -11, 0, -0.4
> Cc1ccc(-n2cc(CNCCCN3CCCC3=O)c(-c3ccc(F)cc3)n2)cc1
→ 2.2, 11, -2, -11, -0.1, 1.9, 6, 0.1
> C=CCNC(=O)c1ccc(-c2nc3ccccc3nc2-c2ccccc2)cc1
→ -1.0, 19, x, 1, -21, 5.7, -4, -0.5
> CCOC(=O)CSc1nc(CC)nc2ccccc12
→ u, -25, 0, 1, 2.8, -24, -4, 0.4
> O=C(NC1CCCC1)C(c1ccccn1)N(C(=O)c1csnn1)C1CCCCC1 (configuration not stated)
→ u, -3, -5, 8, 0.0, 0.7, -9, 0.3
> O=C1CCCN1S(=O)(=O)c1ccccc1
→ 3.0, -17, x, 0, x, 0.8, -17, 0.6
> CCCCCCn1cc(C(=O)O)c(=O)c2cc(F)c(N3CCCCC3)cc21
→ u, 0, 13, 7, -46, 2.7, -18, 2.1
> Cc1ccc(O)c(CC(C)C)n1
→ -1.4, -5, -3, 0, -6.1, -2.0, 13, 0.0
> CC1CCC(NC(=O)C(NC(=O)c2ccccc2)C(C)C)CC1 (configuration not stated)
→ u, -6, -5, -3, -0.5, -3.7, -35, 2.5
> Cc1cccc(N(CC(=O)O)CC(=O)O)c1
→ 2.0, -9, -6, 3, 0.0, 2.6, -20, 0.2
> CCOC(=O)c1[nH]c(C)c(/C(O)=C2\C(=O)C(=O)N(CCN3CCOCC3)C2c2ccco2)c1C (configuration not stated)
→ -0.8, 12, 3, 1, 8.4, 0.3, u, 0.9
> O=c1n(-c2ccc(Br)cc2)cnn1-c1ncccc1[N+](=O)[O-]
→ 7.2, -5, -5, -12, 4.1, 0.5, -3, 0.6
> CCOC(=O)c1cnc2c(Cl)c(Cl)ccc2c1N1CCN(C)CC1
→ 1.4, 27, 1, 1, 7.2, 0.9, -1, 0.3
> Cc1ccc(NC(=O)N2CCC(O)(c3ccc(Cl)cc3)CC2)cc1
→ -0.3, -11, -3, -4, 4.8, -2.0, 2, -0.6
> CC(=O)N(Cc1cc2ccccc2[nH]c1=O)c1ccc(C)cc1
→ 2.0, -19, -1, 14, -3.9, 0.4, 0, 0.7
> C/C(=N\NC(=O)CN(c1ccc(Oc2ccccc2)cc1)S(C)(=O)=O)C(C)(C)C
→ 2.8, 4, 2, -3, x, 3.6, -12, -0.2
> C[C@H](CO)N1C[C@H](C)[C@@H](CN(C)C(=O)NC2CCCCC2)Oc2c(NS(=O)(=O)c3ccc(F)cc3)cccc2C1=O
→ x, x, 5, 0, 4.7, -0.9, x, 1.9
> CC(=O)Nc1ccccc1NC(=O)CN(C)S(=O)(=O)c1ccc(C)cc1
→ -2.3, -12, 0, 5, -0.2, -1.5, -9, 0.0
> CC(C)C(C(=O)OCC(=O)c1cccc([N+](=O)[O-])c1)N1C(=O)[C@@H]2[C@H]3CC[C@H](C3)[C@@H]2C1=O (some centres not stated)
→ -0.6, -13, x, -1, 2.2, -5.1, 2, 0.4
> CCOc1cc(/C=N/N2C(=O)NC3(CCCCC3)C2=O)cc(Br)c1O
→ 3.7, -1, 1, 1, x, 7.1, 13, -0.7
> CC(C)Cc1nnc(NC(=O)CCc2c[nH]c3ccccc23)s1
→ 2.6, 9, 2, 1, 1.4, 0.4, 0, 0.2
> O=C(Nc1cccc(C(F)(F)F)c1)C1CCCN1S(=O)(=O)c1cccc2cccnc12 (configuration not stated)
→ 4.3, -13, 26, 2, -1.6, 3.8, 2, -0.4
> COc1ccc(Cl)cc1NC(=O)CCN1CCN(c2ccccc2C)CC1
→ -1.2, -4, -2, 0, 2.7, -2.0, 5, 0.4
> COc1ccc(C2N(C(=O)c3ccccc3)CCN2C(=O)c2ccccc2)cc1
→ 0.7, 2, 2, -7, 1.1, 16, -10, 0.2
> Cc1cccc(NC(=O)CCS(=O)(=O)c2cccc3nsnc23)c1C
→ 11, -6, -4, 6, 3.7, -0.4, -7, -0.5
> CC(=O)/C(C#N)=C1\NC(=O)C(Cc2ccccc2Cl)S1 (configuration not stated)
→ 6.3, -2, -5, 4, 9.7, 0.5, 6, 0.0
> COc1ccc([N+](=O)[O-])cc1N1C(=O)c2cccc3cccc(c23)C1=O
→ 5.7, 14, -5, -15, 1.3, -2.2, 6, 0.5
